GIV-Gai inh: GIV-Galpha-i interaction inhibition. Galpha-i3/FITC-GIV peptide fluorescence polarization, 90 min; stronger effect = lower value; scaled: aluminum fluoride 0%, vehicle 100%. percent of control (FP), % (no concentration beside the values). 210,000 compounds, 0.42% hits. AID 1224905;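 active = replicate mean at 85% of control or lower, very high polarization wells dropped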;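 also: wells of about 15 µL received 100 nL stock; the first replicate is given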
Target sequence (P08753 whole entry, looked up): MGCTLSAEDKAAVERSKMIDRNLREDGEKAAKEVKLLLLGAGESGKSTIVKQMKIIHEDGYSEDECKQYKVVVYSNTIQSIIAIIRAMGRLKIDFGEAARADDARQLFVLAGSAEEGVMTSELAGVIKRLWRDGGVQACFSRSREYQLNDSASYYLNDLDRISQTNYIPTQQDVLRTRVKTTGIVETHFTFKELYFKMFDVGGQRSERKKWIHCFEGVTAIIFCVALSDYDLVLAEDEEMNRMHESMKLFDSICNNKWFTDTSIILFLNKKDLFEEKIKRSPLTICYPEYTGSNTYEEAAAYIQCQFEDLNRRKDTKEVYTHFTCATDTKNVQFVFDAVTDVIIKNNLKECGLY
Sa growth inh: blocks Staphylococcus aureus growth | S. aureus RN4220 growth, OD600, 20 h, 42 °C; stronger effect = lower value | relative growth, % (concentration not given with the values) | 170,000 compounds, 0.53% hits;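 active = growth at 42 °C up to 50% and 20 or more points under that at 30 °C, or under 10% at both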;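 also: 300 nL library stock went into each well; scaled to the means of positive and negative controls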
HCMV NEC inh: inhibitors of HCMV UL50-UL53 nuclear egress complex interaction | HTRF UL50-UL53 interaction, normalized percent inhibition | inhibition, % (test concentration not listed) | 190,000 compounds, 0.15% hits | AID 1918969;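 active = both replicates at 50% or more, plus weaker picks with an unusually low signal ratio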;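 also: stock transfer was 100 nL into about 20 µL; 0% = negative control wells and 100% = wells with untagged competitor protein; inactives centre near -12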
Sa growth inh second temp: further read-out of Sa growth inh, marked with its call; relative growth, %; measured here: growth at 30 °C;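 optical density after 20 h as mean of two plates; 100% = untreated growth and lower means inhibition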
Active calls of the source: *; x = no result given; & = joins results of further samples.

1. Cn1ccnc1C(=O)c1ccc(Cl)c(S(=O)(=O)N2CCCCCC2)c1
2. COc1ccc(NC(=O)C2CCCN(S(=O)(=O)c3cc(-c4noc(C)n4)sc3C)C2)cc1 (centres undefined)
3. O=C1CCCN1CN1CCCCC1
4. Cc1nc(N)[nH]c(=O)c1Oc1ccccc1
5. NC(=O)c1c(NC(=O)CN2C(=O)/C(=C\c3c(Cl)cccc3Cl)SC2=S)sc2c1CCCC2
entry no.,1,2,3,4,5
GIV-Gai inh,x,109,97,x,102
Sa growth inh,91,x,95,91,x
Sa growth inh second temp,84,x,90,85,x
HCMV NEC inh,-16,-12,x,-10,9

6. Cc1cc2c(c(=O)n1CCCn1ccnc1)C(c1ccccc1)C(C#N)=C(N)O2 (centres undefined)
7. CC(=O)N1N=C(c2c(O)n(C)c(=S)n(C)c2=O)CC1c1ccc(Br)cc1 (centres undefined)
8. COc1ccc(Cn2c(CNS(=O)(=O)c3ccc(Cl)s3)nc3cccnc32)cc1
9. Cc1ccc(-n2ncc(C(=O)NC3CCCCC3)c2C2CCN(C(=O)OC(C)(C)C)CC2)cc1
10. CC(NCc1cccs1)C12CC3CC(CC(C3)C1)C2 (centres undefined)
entry no.,6,7,8,9,10
GIV-Gai inh,97,97,113,102,x
Sa growth inh,113,x,99,109,86
Sa growth inh second temp,76,x,86,103,94
HCMV NEC inh,x,-20,x,x,12

11. COc1cc(/C=C/C(=O)OCC(=O)N2C(C)CCCC2C)ccc1O (centres undefined)
12. Cc1ccc(CNC(=O)C2CCN(C(=O)c3cnn(-c4ccccc4)c3-n3cccc3)CC2)cc1
13. Cc1cc(C)c(C(=O)O)c(=O)[nH]1
14. Cc1ccc(C(=O)Sc2nc(C)cc(C)n2)cc1
15. CC1(C)SC(c2ccccc2)NC1C(=O)O (centres undefined)
entry no.,11,12,13,14,15
GIV-Gai inh,x,100,103,x,106
Sa growth inh,112,107,101&105,85,122
Sa growth inh second temp,93,86,89&101,100,101
HCMV NEC inh,-41,-18,-2&-20,9,4

16. CC(=O)n1nccc1-c1c(C)nc2ccccn12
17. CCOC(=O)c1cccc(NCN2C(=O)c3ccccc3C2=O)c1
18. Cc1cc(C(=O)N2CCN(c3ccc(F)cc3)CC2)c2c(C)nn(-c3cccc(Cl)c3C)c2n1
19. c1nc(NCCc2ccsc2)c2nc3n(c2n1)CCCCC3
20. CCOc1ccc(C(=O)NCCc2csc(-c3cccc(C)c3)n2)cc1
entry no.,16,17,18,19,20
GIV-Gai inh,94,95,107,98,104
Sa growth inh,94,86,110,91,98
Sa growth inh second temp,105,83,105,70,98
HCMV NEC inh,6,-31,x,x,x

21. CC(=O)NCc1ccc(C(=O)COC(=O)c2oc3ccc(Br)cc3c2C)o1
22. O=C(CSc1nnc(-c2cccs2)o1)Nc1cccc(C(F)(F)F)c1
23. CC(C)(C)c1nnc2sc(SC/C(O)=C(\C#N)c3nc4ccccc4[nH]3)nn2c1=O
24. CCCS(=O)(=O)Nc1cccc(-c2ccc(S(=O)(=O)CC)nn2)c1
25. CCOC(=O)CSc1cn(Cc2ccc(Cl)cc2)c2ccccc12
entry no.,21,22,23,24,25
GIV-Gai inh,x,98,x,100,99
Sa growth inh,60,98,82,x,73
Sa growth inh second temp,92,86,67,x,82
HCMV NEC inh,-9,-1,-24,-80,x

Grouped by structure, the entries above with a Cl atom
1. Cn1ccnc1C(=O)c1ccc(Cl)c(S(=O)(=O)N2CCCCCC2)c1
5. NC(=O)c1c(NC(=O)CN2C(=O)/C(=C\c3c(Cl)cccc3Cl)SC2=S)sc2c1CCCC2
8. COc1ccc(Cn2c(CNS(=O)(=O)c3ccc(Cl)s3)nc3cccnc32)cc1
18. Cc1cc(C(=O)N2CCN(c3ccc(F)cc3)CC2)c2c(C)nn(-c3cccc(Cl)c3C)c2n1
25. CCOC(=O)CSc1cn(Cc2ccc(Cl)cc2)c2ccccc12
entry no.,1,5,8,18,25
GIV-Gai inh,x,102,113,107,99
Sa growth inh,91,x,99,110,73
Sa growth inh second temp,84,x,86,105,82
HCMV NEC inh,-16,9,x,x,x

More entries
26. CC(C)C(Sc1nnc2sc3ccccc3n12)C(=O)NC(N)=O (centres undefined)
27. CCOC(=O)N1CCC(Nc2nc(-c3ccccc3)no2)CC1
28. C#CCOc1ccc(C2CC(=O)Nc3c2c(C)nn3-c2nc(C)cc(C)n2)cc1 (centres undefined)
29. COC(=O)c1ccc(COC(=O)c2ccc(S(=O)(=O)C(F)F)cc2)o1
30. Cc1nc(COC(=O)Cc2coc3cc4c(cc23)CCC4)cs1
entry no.,26,27,28,29,30
GIV-Gai inh,x,103,97,x,x
Sa growth inh,95,103,99,107,110
Sa growth inh second temp,86,89,79,80,96
HCMV NEC inh,-14,-16,-40,-9,-11

31. Cc1ccc(S(=O)(=O)NCC2CCC(C(=O)O)CC2)cc1 (centres undefined)
32. COC(=O)c1sc(SC)c(-c2ccn(S(=O)(=O)c3ccc(Cl)cc3)n2)c1C
33. CCOC(=O)c1[nH]c2ccc(OC)cc2c1N
34. CSc1c(CC(=O)NN)n(C)c2ccccc12
35. O=C(/C=C\Nc1ccc(OC(F)(F)F)cc1)c1ccc(F)cc1
entry no.,31,32,33,34,35
GIV-Gai inh,x,104,108,x,100
Sa growth inh,84,100,x,77,85
Sa growth inh second temp,88,87,x,99,87
HCMV NEC inh,28,-15,-75,-1,-2

36. CN(C)c1ccc(C2Nc3ccccc3NC3=C2C(=O)CCC3)cc1 (centres undefined)
37. Cc1ccc(SCc2noc(-c3c(C)noc3C)n2)cc1
38. Cc1cccc2cc(-c3noc(-c4ccccc4)n3)c(N3CCOCC3)nc12
39. COc1ccc(-c2nc(NC(=O)COc3ccc(F)cc3)no2)cc1
40. c1ccc(CC2CCN(CCCNc3nn4nnnc4c4ccccc34)CC2)cc1
entry no.,36,37,38,39,40
GIV-Gai inh,104,99,103,97,100
Sa growth inh,98,95,x,x,x
Sa growth inh second temp,95,69,x,x,x
HCMV NEC inh,5,3,1,1,-14

41. COc1ccc(NC(=S)N/N=C/c2ccc(N3CCOCC3)o2)cc1
42. Cc1nc2c(C(=O)N3CCOCC3)c[nH]n2c(=O)c1Cc1ccc(F)cc1Cl
43. O=C(Cn1cnc2sc(-c3ccccc3)cc2c1=O)N1CCCC1
44. Fc1c(F)c(F)c(OC(c2ccccc2)C(F)(F)F)c(F)c1F (centres undefined)
45. Cc1ccc(CNCc2c(C(=O)O)c(C)n(Cc3ccc(C)cc3)c2C)cc1
entry no.,41,42,43,44,45
GIV-Gai inh,130,101,106,97,111
Sa growth inh,85,94,119,110,115
Sa growth inh second temp,80,81,99,81,99
HCMV NEC inh,-70,x,-30,-4,-18

46. COc1ccc(-c2nc(SCC(=O)N(C3CCCCC3)C3CCCCC3)n[nH]2)cc1
47. O=C(COc1ccc2c(c1)[nH]c1ccccc12)NC1CC1
48. O=C(Nc1ccc2nn(-c3cccc(Cl)c3)nc2c1)c1ccco1
49. Cn1c(N)c(C(=O)N/N=C/c2ccccc2)sc1=S
50. COc1cccc(N2C(=O)CC(c3ccc(OC)c(OC)c3)CC2=O)c1
entry no.,46,47,48,49,50
GIV-Gai inh,x,x,98,103,99
Sa growth inh,93,87,95,98,x
Sa growth inh second temp,91,99,89,93,x
HCMV NEC inh,-5,-21,-3,-28,-17

51. CCC(C)NC(=O)C(C)n1sc2ccccc2c1=O (centres undefined)
52. COC(=O)C1=C(C)NC2=C(C(=O)CC(C)(C)C2)C1c1ccc(OC(=O)c2ccc(Cl)cc2)c(OC)c1 (centres undefined)
53. CCOc1ccc2c(c1)C(C)=CC(C)(C)[N+]2(C)C
54. CCOC(=O)CSc1nnnn1-c1ccc2c(c1)OCO2
55. CCCn1c(C)ccc(-c2noc(CCCC(=O)Nc3cc(C)cc(C)c3)n2)c1=O
entry no.,51,52,53,54,55
GIV-Gai inh,100,104,x,98,109
Sa growth inh,86,x,107,95,x
Sa growth inh second temp,93,x,87,86,x
HCMV NEC inh,x,10,-28,-7,-6

56. CCOc1ccc(CNC(=O)CSc2cc(=O)n(CC)c3ccccc23)cc1
57. COc1ccccc1C(=O)N(CCCN1C(=O)c2cccc3cccc(c23)C1=O)c1ccccc1OC
58. CCN(CC)c1ccc(NC(=O)C2C(C)C(=O)OC23CCC(C(C)C)CC3)c(C)c1 (centres undefined)
59. O=C(CCc1nc(-c2cccs2)no1)Nc1c(C(=O)N2CCN(c3ncccn3)CC2)oc2ccccc12
60. Cc1ccc(C)c(NC(=O)Cn2cc(S(=O)(=O)N3CCCC3)c(S(=O)(=O)N3CCCC3)c2)c1
entry no.,56,57,58,59,60
GIV-Gai inh,100,101,112,101,105
Sa growth inh,104,x,x,91,93
Sa growth inh second temp,88,x,x,83,84
HCMV NEC inh,-41,-26,-7,-22,x

61. COc1cccc(C(=O)Nc2cc(-c3ccccc3)no2)c1
62. Cc1ccc2c(c1)cc(C(=O)Nc1ccc(F)cc1F)n2C
63. O=C(c1ccc(Cl)cc1)N1CCCC1
64. CS(=O)(=O)N(Cc1nnc(-c2cccs2)o1)c1ccc(Cl)cc1F
65. Cc1ccc(-c2cc3c(SCC(=O)NC4CCCCC4)nccn3n2)cc1
entry no.,61,62,63,64,65
GIV-Gai inh,102,103,108,x,101
Sa growth inh,108,90,110,99,x
Sa growth inh second temp,89,88,94,98,x
HCMV NEC inh,-18,4,-15,-37,-23

66. COc1ccccc1CNS(=O)(=O)c1ccc(F)c(C(=O)Nc2cc(Cl)ccc2OC)c1
67. Cc1cc(C)nc(SCC(=O)C(C)(C)C)n1
68. Cc1c(C(=O)NCC(c2ccccc2)c2c[nH]c3ccccc23)oc2ccccc12 (centres undefined)
69. Cn1c(N)c(C(=O)COC(=O)[C@@H]2CCCN2S(=O)(=O)c2ccc(Cl)cc2)c(=O)n(C)c1=O
70. O=C(Cn1c(=O)sc2ccccc21)Nc1nncs1
entry no.,66,67,68,69,70
GIV-Gai inh,106,106,98,x,100
Sa growth inh,125,90,x,118,89
Sa growth inh second temp,105,90,x,70,98
HCMV NEC inh,x,10,-14,-2,-3

71. CCOc1cccc(C(=O)Oc2cccc3ccc(C)nc23)c1
72. CCc1ccc(-n2c(=O)c3c4c(sc3n(CC(=O)c3ccc(Br)cc3)c2=O)CCC4)cc1
73. CCN1CCN(C(=O)c2ccc(CS(=O)(=O)Cc3ccccc3F)o2)CC1
74. CCCOc1ccc(C2c3c(-c4ccccc4O)n[nH]c3C(=O)N2CCCOCC)cc1OCC (centres undefined)
75. CCOc1ccc(CCNC(=O)c2cn(C)c3ccc(S(=O)(=O)N4CCOCC4)cc3c2=O)cc1OCC
entry no.,71,72,73,74,75
GIV-Gai inh,106,112,98,102,98
Sa growth inh,80,80,110,100,107
Sa growth inh second temp,92,97,92,83,95
HCMV NEC inh,x,10,x,-15,-25

76. COc1ccc(NC(=O)c2cc(S(=O)(=O)NCCC3=CCCCC3)ccc2F)cc1
77. C=CCn1c(C(C)NC(=O)c2ccccc2Cl)n[nH]c1=S (centres undefined)
78. O=C(CCSCc1ccco1)NNC(=O)N1Cc2ccccc2Oc2ccc(Cl)cc21
79. O=C(C1=CN(c2cccc(Cl)c2)c2cc(F)ccc2S1(=O)=O)c1ccccc1
80. COc1ccc(N(CC(=O)N2c3ccccc3CC2C)S(=O)(=O)c2c(C)noc2C)cc1 (centres undefined)
entry no.,76,77,78,79,80
GIV-Gai inh,105,101,105,102,105
Sa growth inh,128,113,x,x,90
Sa growth inh second temp,94,83,x,x,89
HCMV NEC inh,x,-5,-13,-33,-19

81. CCOc1ccc(N(CC)S(=O)(=O)c2c(C)[nH]c(=O)[nH]c2=O)cc1
82. O=C(COC(=O)Cn1nc(-c2ccccc2)oc1=O)Nc1ccc(F)cc1
83. CCCN1CCN(C(=O)c2ccc(S(=O)(=O)N3CCCc4ccccc43)cc2)CC1
84. COC(=O)c1cn(CCOc2ccccc2)c2ccccc12
85. Cc1ccc(Cl)cc1N(C)C(=O)c1cn(C2CCCCC2)c(=O)c2c1c1ccccc1n2C
86. CCS(=O)(=O)C(=C(Nc1ccc(OC)cc1)Nc1ccc(OC)cc1)S(=O)(=O)CC
87. NC(=O)c1ccccc1NC(=O)c1c(-c2ccccc2)nnc2ccccc12
88. Cc1cc(C)c(C(=O)COC(=O)c2c(C)noc2C)cc1C
entry no.,81,82,83,84,85,86,87,88
GIV-Gai inh,103,x,x,94,99,106,98,x
Sa growth inh,88,80,97,96,97,94,x,112
Sa growth inh second temp,94,82,85,88,86,90,x,103
HCMV NEC inh,-8,-26,-8,x,-5,-17,-81,-6

Bioassay records as filed in PubChem.
